From PubChem BioAssay
Sa RN4220 lethal – S. aureus RN4220 growth inhibition | inhibition, % (no concentration beside the values) | 0.33% of 330,000 active | OD600, 16 h;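 active = z-score of -3 or lower and OD600 up to 0.18 on both plates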;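 note: plate controls were untreated cells for no effect and reference antibiotic for full effect; stock transfer was 100 nL into about 80 µL; one replicate is shown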
PrP UTR inh – inhibition of PrP 5' UTR reporter expression. inhibition, % (concentration not given with the values). 0.35% of 340,000 active. cell-based PrP 5' UTR mRNA reporter, plate reader;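 active = every replicate at 50% or more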;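 note: 0 = median of the neutral control wells; tested in H4 reporter cells; numbers are from one replicate; inactives centre near -14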
Autofluor counter – compound fluorescence in toxin protease inhibitor counterscreen | compound autofluorescence counterscreen, microsphere flow cytometry; stronger effect = higher value | 3.1% of 360,000 active | AID 624483 | fluorescence intensity (concentration not given with the values);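 active = at least 3 SD above the mean of all compounds, about 16000 in these data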;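 note: 100 nL of 1 mM stock went into each well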
BJeLR viability – BJeLR cell viability loss; 0.17% of 300,000 active; inhibition, % (no concentration beside the values); AID 1554; BJeLR (HRASV12) viability, CellTiter-Glo ATP luminescence, 48 h; reference of the scale not given here;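 active = replicate mean above 50%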;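 note: 50 nL library stock added to about 25 µL; numbers are from one replicate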
Mtb hypoxia rep – Mtb hypoxia fluorescent reporter inhibition. M. tuberculosis hypoxia-regulated fluorescent reporter, fluorescence. fluorescence inhibition, % (no concentration beside the values). 0.1% of 300,000 active. AID 1159583;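 active = 35 to 45% if threefold the growth effect, above 45% if 1.5-fold the growth effect; inactive = the rest, general growth blockers included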;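 note: wells of about 50 µL received 100 nL stock; 0% = vehicle wells and 100% = reference inhibitor wells; whole bacteria with a GFP reporter of the hypoxia response; strong numbers were not always called active; many hits fall short of the cut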
Sa ugtP lethal – compounds lethal to S. aureus RN4220 ugtP deletion mutant; OD600 growth, 16 h; some inactives read as strong as hits; growth inhibition, % (test concentration not listed); 0.54% of 330,000 active; AID 1259309;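 active = z-score under -3 and OD600 up to 0.15 on both plates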;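 note: plate controls were untreated wells for no effect and antibiotic for full effect; wells of about 80 µL received 100 nL stock; the first replicate is given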
Mtb hypoxia rep growth – also measured in Mtb hypoxia rep; calls as there; growth inhibition, %; measured here: M. tuberculosis growth (absorbance);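 0% = vehicle and 100% = reference antibiotic; read after six days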
An asterisk follows results filed as active; · = not tested or not shown.

SMILES | Sa RN4220 lethal | PrP UTR inh | Autofluor counter | BJeLR viability | Mtb hypoxia rep | Mtb hypoxia rep growth | Sa ugtP lethal
O=S(=O)(c1ccc(NC2CCCc3ccccc32)nc1)N1CCOCC1 (centres undefined) | 2.8 | -15 | 4608 | 4 | 3 | 4 | 9
O=C(O)c1ccccc1-c1nnc2c(Cl)cc(C(F)(F)F)cn12 | -0.3 | -14 | 2894 | -3 | -7 | -7 | -4
Cc1noc(C)c1COc1ccc(C(=O)OCC(=O)N2c3ccccc3NC(=O)C2(C)C)cc1 | 23 | -18 | 3217 | -8 | -1 | 6 | 55
CCOC(=O)Cc1csc(NC(=O)CSC2=NCCS2)n1 | 0.0 | 6 | 5908 | 9 | -3 | 2 | 3
O=C(NCCc1nc2ccccc2[nH]1)/C(=C/c1ccc(F)cc1)NC(=O)c1ccco1 | -0.9 | -17 | 4270 | 0 | 1 | 8 | -1
CCCN(CCC)CCNC(=O)c1cc2c(-c3ccc(Cl)cc3)nn(C)c2s1 | -5.3 | -2 | 3072 | 5 | 0 | 20 | 1
COc1ccc(C(C)=NNC(=O)c2sccc2-n2cccc2)cc1 | 0.2 | · | · | · | 1 | 2 | 1
COc1ccc2nc(SCC(=O)NC3CCCCC3C)[nH]c2c1 (centres undefined) | 1.5 | -4 | 3763 | · | 7 | 3 | 2
CCn1c(C(C#N)=NO)nc2ccccc21 | 6.5 | · | · | · | -3 | 8 | 0
CCN(c1ccc(C)cc1C)S(=O)(=O)c1nnc(NC(=O)C(C)C)s1 | 11 | -29 | 4174 | -2 | 7 | 1 | 5
CCCn1c(=O)n(CC(=O)NCC2CCCO2)c(=O)c2c3c(sc21)COC(C)(C)C3 (centres undefined) | 1.3 | -9 | 4946 | 7 | -12 | 2 | 2
COc1cccc(CNC(=O)C2CCN(S(=O)(=O)c3ccc4c(c3)CCC(=O)N4)CC2)c1 | 5.0 | -23 | 5627 | 1 | · | · | 7
CCO[C@H]1OC(C(=O)N2CCOCC2)=C[C@@H](c2ccc(C(F)(F)F)cc2)[C@@H]1CCCO | 12 | -5 | 2843 | 8 | -1 | 1 | 1
CCOc1ncccc1C(=O)NCC(c1ccccc1)N(C)C (centres undefined) | 3.6 | 3 | 5244 | -3 | 1 | -1 | 6
CCC(=O)c1ccc(OCC(=O)Nc2ccc3nc(C)sc3c2)cc1 | 2.6 | -13 | 4543 | 10 | 13 | 8 | 2
Cc1ccc(NC(=O)c2ccc3c(=O)n4c(nc3c2)CCCCC4)nc1 | 0.0 | -41 | 4111 | -2 | -1 | 2 | 5
O=C(COc1ccccc1)NNc1nc2c(F)cccc2s1 | 5.1 | -8 | 4406 | 3 | -1 | 5 | 10
COc1ccc(N(C(=O)/C=C/C(=O)Nc2cc(C)on2)C(C(=O)NC2CCCC2)c2ccccc2C)cc1 (centres undefined) | -2.4 | -5 | 2408 | -7 | 5 | 11 | 2
O=C(COC(=O)/C=C/c1ccccc1[N+](=O)[O-])Nc1ccc(S(=O)(=O)N2CCOCC2)cc1 | 5.4 | -29 | 3588 | · | 14 | 12 | 1
CCc1ccccc1NC(=S)NNC(=O)c1ccccc1Cl | 3.7 | -10 | 3251 | -15 | 15 | 14 | 8
O=C(CSc1nc2c(sc3ccccc32)c(=O)n1Cc1ccccc1)NCC1CCCO1 (centres undefined) | 9.6 | -30 | 5936 | -4 | 15 | 6 | -13
Cc1cc(C)c2nc(N(CCCN(C)C)C(=O)C3=COCCO3)sc2c1 | 0.2 | 0 | 4617 | 2 | -7 | -15 | 4
CCOC(=O)C1=NN(c2cccc(Cl)c2)C2=NC(C)=C(C(=O)OC)C(c3cccs3)N12 (centres undefined) | -7.7 | -19 | 5277 | 0 | 0 | 6 | -25
COC(=O)[C@@H]1Cc2c([nH]c3ccccc23)C(C)N1C(=O)c1ccccc1 (some centres undefined) | 0.9 | -11 | 3385 | 11 | -8 | 11 | -2
CC(C)[C@H](N)C(=O)NC[C@H]1CC[C@H](C(=O)N[C@@H](Cc2ccccc2)C(=O)O)CC1 | · | -17 | 3818 | -3 | · | · | ·
CCOC(=O)c1c(-c2cccs2)csc1NC(=O)C(C)(C)C | -7.7 | -20 | 9546 | 4 | 4 | 1 | 40
O=S(=O)(NC1CCN(Cc2ccccc2)CC1)c1ccc(Cl)cc1 | 1.3 | · | 6174 | -4 | -2 | 10 | 1
C=CCOc1cccc(/C=N/NC(=O)CC(=O)NC2CCCCC2)c1 | · | 4 | 4333 | -3 | · | · | ·
C=C1C2(C(=O)Nc3ccc(SC(F)F)cc3)CCC(C2)C1(C)C (centres undefined) | 7.4 | -13 | 2094 | -1 | 16 | 41 | 14
O=S(=O)(Nc1ccccc1)c1ccc(F)cc1 | 1.1 | -37 | 4549 | -15 | 8 | 13 | -8
CCc1ccc(NC(=O)C(C)Nc2ccc(S(=O)(=O)NC(C)=O)cc2)cc1 (centres undefined) | 0.2 | -35 | 4829 | -16 | 7 | 4 | 5
COc1ccc(C2OC(=O)Cc3cc(OC)c(OC)cc32)cc1 (centres undefined) | -1.0 | -14 | 4836 | 5 | -10 | 2 | -3
CCC(C)c1ccc(OCCn2cc(/C=N/NC(=O)CSc3nnc(C)s3)c3ccccc32)cc1 (centres undefined) | · | -23 | 3663 | -11 | · | · | ·
Cc1cccc(N(Cc2ccccc2)C(=O)C2CCN(C(=O)c3ccccc3C)CC2)c1 | 3.6 | -11 | 6449 | · | 5 | -12 | 8
O=C(O)c1ccccc1C(=O)N1CCN(Cc2ccc3c(c2)OCO3)CC1 | -0.9 | -20 | 3918 | 19 | -6 | 0 | 6
CCO[C@@H]1OC(C(N)=O)=C[C@H](C2CCCCC2)[C@H]1CCCO | · | -4 | 4491 | -1 | · | · | ·
COC(=O)CCC(=O)N1CCCC(CO)(Cc2ccccc2C)C1 (centres undefined) | 2.5 | -15 | 2418 | -3 | -3 | 6 | 4
CN(C)CCCNC(=O)c1cc(C(=O)c2cccc(Cl)c2Cl)c[nH]1 | 2.7 | -2 | 3066 | 6 | 1 | -7 | 3
Cc1cccc(CN2CCN(C(=O)Cc3ccccc3)CC2)c1 | 5.1 | -14 | 4046 | 2 | 17 | 1 | 2
C(/C=C/c1ccccc1)=NNc1nc2ccccc2s1 | 5.6 | · | · | · | 10 | -1 | -8
O=C(CSc1nnc(NC(=O)c2ccccc2F)s1)Nc1ccccc1F | 3.1 | -56 | 3352 | 6 | 9 | 2 | -2
O=C(N/N=C/c1ccc[nH]1)c1ccccc1OCc1ccc(F)cc1 | · | -15 | 4384 | -3 | · | · | ·
Cc1ccc(CN2C(=O)c3ccccc3Sc3ccc(C(=O)NCCCN4CCOCC4)cc32)cc1 | -3.6 | -28 | 5572 | -4 | -8 | -3 | -7
Clc1ccccc1Nc1nnc(-c2ccncc2)s1 | 0.9 | -13 | 2569 | 85* | 16 | 22 | 3
O=C(Cc1ccccc1Cl)Nc1nc2ccccc2[nH]1 | 10 | -30 | 4446 | -1 | -17 | 8 | -1
COc1ccc(CC(=O)OCc2cc3ccccc3[nH]c2=O)cc1 | 8.7 | -12 | 3164 | -2 | 6 | 0 | -3
O=C(CC1SC(N2CCCCC2)=NC1=O)Nc1ccc(C(=O)O)cc1 (centres undefined) | 4.9 | -29 | 2907 | · | 13 | 8 | 8
O=C(NCc1ccccc1Br)c1cccc2c1C(=O)c1ccc(-c3ccc(OC(F)(F)F)cc3)cc1S2(=O)=O | 7.3 | -7 | 4086 | · | 9 | 2 | 12
COc1cc(OC)cc(C(=O)Nc2nc3ccccc3[nH]2)c1 | 4.7 | -85 | 3102 | 10 | 2 | -1 | -8
CC1(C(=O)N2CCN(Cc3ccccc3Cl)CC2)CC1(Cl)Cl (centres undefined) | 4.5 | -50 | 3410 | -12 | -1 | 7 | 4
CC1=CC(C)(C)N=C(NC#N)N1 | 5.3 | -9 | 19967* | -2 | -1 | 4 | 5
CCCc1nc(SCC(=O)N2CCC(Cc3ccccc3)CC2)c2c(=O)n(C)c(=O)n(C)c2n1 | 2.2 | -14 | 4488 | -28 | 6 | 2 | -11
O=C(C1=C[C@H](C2CC2)C[C@H](OCCCCO)O1)N1CCN(Cc2ccc3c(c2)OCO3)CC1 | · | -16 | 3054 | -6 | · | · | ·
N#Cc1cccc(NC(=O)c2cncn2-c2ccccc2)c1 | 4.2 | -30 | 3686 | -6 | 8 | 10 | 13
c1ccc(-c2noc(COc3ccc4c(c3)OCO4)n2)cc1 | -12 | -73 | 3099 | -3 | 16 | 14 | 0
CCCN1C2=C(C(=O)CCC2)C(c2ccc(O)c(Br)c2)C2=C1CCCC2=O | 4.1 | -14 | 4547 | 6 | 1 | 1 | -6
CC(=O)c1ccc(N/N=C2/CCCNC2=O)cc1 | · | -24 | 5982 | 2 | · | · | ·
COCCCNC(=O)CN1C(=O)/C(=C/c2ccccc2)Sc2ccccc21 | 5.7 | -7 | 5992 | 11 | 6 | 6 | 10
COc1ccc(NC(=O)CSc2nc3ccccc3nc2N2CCCCC2)cc1 | -3.8 | -12 | 6079 | 2 | 6 | 8 | -9
CCOC(=O)c1[nH]c(C)c(C(=O)NC)c1C | 1.6 | -22 | 6298 | 5 | · | · | 1
